Assay outcomes as filed in PubChem BioAssay.
E coli growth – inhibitors of Escherichia coli growth. OD600, 23 h; hits give low values. OD600 absorbance (concentration not given with the values). 330,000 compounds, 0.21% hits;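 active = OD600 absorbance below the run mean of sample wells minus 3.6 SD, in any replicate, cut at about 0.56 in these data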;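 note: stock transfer was 300 nL into about 60 µL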
ALR H2O2 inh – human ALR oxidase inhibition via reduced H2O2; purified ALR, DTT oxidation, H2O2 HRP-luminol luminescence; inhibition, % (no concentration beside the values); 290,000 compounds, 3.8% hits; AID 485317;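 active = mean and each replicate at 75% or more; inconclusive = only one of the two met; inactive = neither met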;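 note: stock transfer was 7.5 nL into about 7.5 µL; 0% = neutral wells and 100% = wells with inactivated enzyme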
Target sequence (P55789 whole entry, looked up): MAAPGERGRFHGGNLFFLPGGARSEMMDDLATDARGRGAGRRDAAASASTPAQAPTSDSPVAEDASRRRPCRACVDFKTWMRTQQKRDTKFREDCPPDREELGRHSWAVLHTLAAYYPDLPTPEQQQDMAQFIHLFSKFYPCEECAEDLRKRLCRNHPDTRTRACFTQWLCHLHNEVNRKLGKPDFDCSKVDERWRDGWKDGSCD
Vif A3G – inhibitors of Vif binding to APOBEC3G peptide, primary screen, biochemical, TR-FRET, GST-Vif 1-94, biotin-A3G peptide, dose response retest (AID 1117319); 260,000 compounds, 0.57% hits; TR-FRET GST-Vif / biotin-A3G peptide binding; higher % means a stronger effect; test concentration not given here; strong numbers were not always called active; inhibition, %, or IC50 in µM where a hit was titrated;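 active = above the screen mean plus three standard deviations and confirmed in dose response; inconclusive = results disagree or hit not tested in dose response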;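 note: Vif residues 1-94 fused to GST binding biotinylated APOBEC3G peptide 110-148; 0% = full assay without inhibitor and 100% = GST in place of GST-Vif; retest series ran down from 100 µM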
MLL AF4-AF9 inh – blocks AF4 peptide binding to human AF9; P42568; AlphaScreen, biotin-AF4 peptide binding to FLAG-AF9; inhibition, % at 10 µM; 350,000 compounds, 0.47% hits; AID 651704;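 active = every replicate reaching a set inhibition limit, whatever the replicate mean, cut at about 25% in these data; inconclusive = mean inhibition reaches that limit but some replicates miss it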;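 note: 0% = plate neutral control median and 100% = total signal loss; the record names both 10 and 1 µM as test concentration; the first replicate is given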
Target sequence (P42568 whole entry, looked up): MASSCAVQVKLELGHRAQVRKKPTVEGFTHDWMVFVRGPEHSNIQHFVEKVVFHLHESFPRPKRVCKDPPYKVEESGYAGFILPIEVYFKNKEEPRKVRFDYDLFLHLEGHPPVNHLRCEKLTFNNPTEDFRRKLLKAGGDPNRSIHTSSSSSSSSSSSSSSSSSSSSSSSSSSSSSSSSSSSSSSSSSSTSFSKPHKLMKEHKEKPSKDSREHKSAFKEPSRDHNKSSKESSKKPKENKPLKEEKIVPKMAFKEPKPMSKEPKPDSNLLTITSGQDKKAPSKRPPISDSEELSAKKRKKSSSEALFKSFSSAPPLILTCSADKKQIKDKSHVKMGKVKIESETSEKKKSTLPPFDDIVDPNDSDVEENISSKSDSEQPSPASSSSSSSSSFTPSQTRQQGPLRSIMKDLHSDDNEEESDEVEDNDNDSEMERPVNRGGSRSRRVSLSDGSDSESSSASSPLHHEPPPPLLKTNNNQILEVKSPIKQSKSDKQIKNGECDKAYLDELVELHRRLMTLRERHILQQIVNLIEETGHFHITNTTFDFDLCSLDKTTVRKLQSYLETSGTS
rRNA inh HTS – inhibitors of bacterial rRNA selective over humanized ribosomes. E. coli WT GFP vs humanized-ribosome RFP mutants, fluorescence, 24 h; hits give low values; DMSO median 0, no signal -100. GFP signal change (wild-type ribosome), % (concentration not given with the values). 350,000 compounds, 1.6% hits;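 active = significant combined selectivity score with lowered wild-type GFP, culture density cut under 30%, mutant RFP and density less affected; inactive = any of these conditions unmet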; note: one replicate is shown; some compounds called inactive have numbers as strong as hits
HNF4A DNA FP – change in binding of human HNF4 alpha to DNA; P41235; HNF4a-FITC DNA binding, fluorescence polarization, 1 h; activity change, % at 10 µM; 360,000 compounds, 0.3% hits; AID 1224865; in the data active = activity change above about 30%, passing the limit was not always enough;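 note: controls were the assay level and a saturating level of protein; the project sought stronger binding though the title names inhibitors; some compounds called inactive have numbers as strong as hits; positive values seem to mean higher polarization but the record does not say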
FGF22 binding – FGF22 (human) thermal shift binding. Q9HCT0. recombinant FGF22 thermal shift, SYPRO orange fluorescence; percent of sucrose octasulfate shift, DMSO zero. calls only at 9.99 µM. 340,000 compounds, 1.5% hits. AID 651658;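 active = melting point raised past a set limit in the mean and every replicate; inconclusive = no clear call; three in four hits are not shown here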
Target sequence (Q9HCT0 whole entry, looked up): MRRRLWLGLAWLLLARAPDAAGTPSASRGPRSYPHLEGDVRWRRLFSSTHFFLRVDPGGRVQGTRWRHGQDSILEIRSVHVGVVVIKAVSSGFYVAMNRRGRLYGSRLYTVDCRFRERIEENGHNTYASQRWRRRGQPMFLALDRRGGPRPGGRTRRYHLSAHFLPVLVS
rRNA inh HTS OD600 – further read-out of rRNA inh HTS, marked with its call; OD600 change, %; measured here: OD600 growth;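 optical density of the mix in the first replicate; 0 = DMSO median and -100 = no signal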
rRNA inh HTS RFP – recorded beside rRNA inh HTS, whose call it bears; RFP signal change, %; measured here: RFP humanized mutant strains;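 first replicate; 0 = DMSO median and -100 = no signal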
An asterisk follows results filed as active; i = inactive; ? = inconclusive; · = not tested or not shown; & = joins results of further samples. Not all compounds are listed. The share of hits here may be higher or lower than overall.

SMILES	E coli growth	ALR H2O2 inh	Vif A3G	MLL AF4-AF9 inh	rRNA inh HTS	rRNA inh HTS OD600	rRNA inh HTS RFP	HNF4A DNA FP	FGF22 binding
C[C@@H]1CCCCO[C@H](CN(C)Cc2ccc3c(c2)OCO3)[C@@H](C)CN([C@@H](C)CO)C(=O)c2cc(NC(=O)c3ccncc3)ccc2O1	·	·	·	0.3	-0.9	-1.1	-1.3	·	i
COc1cc(OC)cc(C(=O)NCCOC23CC4CC(CC(C4)C2)C3)c1	0.711	-2.1	0.4%	2.8	-14.3	-12.5	5.9	-1.3	i
O=C(NC1CCCC1)c1cc(-c2ccc(Cl)c(Cl)c2)on1	0.674	-0.1	5.5%	-3.2	6.0	12.4	-0.9	-1.6	i
O=C(c1ccccc1)c1nn(-c2ccc(Cl)cc2)cc1C(=O)c1cc2ccccc2oc1=O	·	-1.8	-2.7%	·	·	·	·	5.4	·
C[C@@H]1CN([C@@H](C)CO)C(=O)c2cccc(N(C)C)c2O[C@H]1CN(C)Cc1ccc(C(=O)Nc2ccccc2N)cc1	·	·	·	4.7	1.3	5.2	-0.5	·	i
Cc1sc(NC(=O)C2CC=CCC2C(=O)O)c(C(=O)OC(C)C)c1C (stereo not drawn)	0.7	·	6.2%	·	·	·	·	-4.0	·
COc1ccc(/C=C(\NC(=O)c2ccc(Cl)cc2)C(=O)NCC2CCCO2)cc1OC (stereo not drawn)	0.683	·	·	2.9	-2.9	2.1	-2.3	-3.0	i
COCc1cn(CC[C@@H]2CC[C@H](NC(=O)Nc3ccc(F)cc3)[C@H](CO)O2)nn1	·	·	·	-0.7	5.0	-2.1	-1.9	·	i
CCN(CC)CCNC(=O)Cn1ncc2ccccc2c1=O	0.688	-1.6	10.2%	-6.7	6.3	8.1	0.3	-3.2	i
Cc1c(OCC(=O)NC(Cc2ccc(Cl)cc2)C(=O)O)ccc2c3c(c(=O)oc12)CCC3 (stereo not drawn)	0.686	5.6	·	-3.7	·	·	·	2.0	i
CC(C)(Sc1ccc(CCN(CCCCC2CCCCC2)C(=O)NC2CCCCC2)cc1)C(=O)O	0.677	·	·	-7.0	-4.6	1.4	-1.2	-1.1	i
Cc1cc(NC(=O)c2ccc(N3CCCC3)c([N+](=O)[O-])c2)no1	0.694	-2.5	·	2.6	2.5	3.0	-0.1	-0.1	i
CCSc1ccccc1C(=O)Nc1cccnc1	0.661	6.7	9.5%	·	·	·	·	-2.7	·
Cn1c(SCc2cccc(F)c2)nnc1-c1cnccn1	0.674	-10.5	6.1%	-6.0	0.2	6.3	1.2	-2.0	i
O=C([C@@H]1[C@@H](CO)[C@@H]2Cn3c(cccc3=O)[C@H]1N2C(=O)c1ccccn1)N1CCCCC1	·	·	·	0.7	-0.2	0.3	-3.0	·	i
CCCNS(=O)(=O)c1ccc(CCC(=O)N2CCC(C)CC2)cc1	0.69	-7.7	11.8%	·	·	·	·	3.3	·
Cc1csc(NC(=O)CCCc2cccs2)n1	0.7	-5.0	2.7%	-1.5	-12.9	-14.0	1.3	2.5	i
O=C(NCc1ccccn1)C1CCN(S(=O)(=O)N2CCCC2)CC1	0.66	-3.3	2.5%	?	12.1	7.1	1.1	0.6	i
CCn1c(SCc2ccccc2)nc2ccccc2c1=O	0.732	2.4	·	-1.6	-32.2*	-1.1*	-7.2*	-0.4	i
CNc1nc(Oc2ccc3sc(C)nc3c2)c2sccc2n1	·	·	·	0.5	-59.4	-74.6	-17.0	-1.6	i
O=C(COC(=O)c1cc(-c2ccccc2Cl)nc2ccccc12)Nc1ncc(C(F)(F)F)cc1Cl	0.709	-12.5	9.4%	·	·	·	·	-0.2	·
Cc1ccnc(N2CCC(C(=O)Nc3nnc(C)s3)CC2)n1	0.661	5.3	4.4%	·	·	·	·	3.1	·
CN(c1cccc(NC(=O)c2ccccc2N(Cc2ccccc2)S(C)(=O)=O)c1)S(C)(=O)=O	0.719	-0.4	·	-0.6	-9.7	-17.3	0.8	0.0	i
Cc1ccc(S(=O)(=O)N2CCCCC2)cc1NS(=O)(=O)c1cccc(C(=O)O)c1	0.674	7.4	·	1.6	12.1	8.4	-9.1	-2.9	i
C[C@@H]1CN([C@H](C)CO)C(=O)c2cc(C#CC3CC3)cnc2O[C@H]1CN(C)C(=O)Cc1ccccn1	·	·	·	-3.4	1.6	1.2	1.4	·	i
C[C@H](O)C#Cc1cnc2c(c1)C(=O)N([C@@H](C)CO)C[C@@H](C)[C@H](CN(C)C(=O)Nc1ccc(F)cc1)O2	·	·	·	-1.6	1.6	13.3	-7.3	·	i
COc1ccc(-n2nc(C(=O)NCC(=O)Nc3cccc(Cl)c3)c3ccccc3c2=O)cc1	0.726	3.0	·	-0.9	11.0	7.4	-1.7	1.2	i
CCC(NC(=O)c1ccccc1NC(=O)c1ccco1)C(=O)NNC(=O)c1ccc(OC)cc1 (stereo not drawn)	0.661	1.2	?	-2.4	7.3	6.0	-1.8	4.2	i
COc1ccc(S(=O)(=O)N/N=C(/C)c2ccncc2)cc1	·	-3.4	4.1%	-0.2	9.8	19.8	-2.5	1.4	i
CN(CCOc1ccc(CC2SC(=O)NC2=O)cc1)c1ccccn1 (stereo not drawn)	0.687&0.69	-1.5&4.6	·	-2.5&-5.3	-18.5*	-19.1*	5.8*	2.2&1.8	i
CCCn1nnc(NC(=S)NC(=O)/C=C/c2ccc(Cl)cc2)n1	0.652	15.7	6.8%	·	-23.0	-47.8	2.1	-0.1	i
CCOC(=O)c1c(C)oc2ccc(NS(=O)(=O)c3ccc4c5c(cccc35)C(=O)N4)cc12	0.74	-9.1	?	·	·	·	·	-5.9	·
CN1C[C@H]2[C@@H](c3ccccc31)[C@H](CO)N2C(=O)C1CCOCC1	·	·	·	-1.2	-2.1	1.7	-1.5	·	i
CN1CCN(C(=O)[C@@H]2[C@@H](CO)[C@@H]3Cn4c(ccc(-c5cncnc5)c4=O)[C@@H]3N2CC2CC2)CC1	·	·	·	-2.2	1.1	3.6	-0.9	·	i
C[C@@H]1CCCCO[C@@H](CN(C)S(=O)(=O)c2cn(C)cn2)[C@@H](C)CN([C@H](C)CO)C(=O)c2cc(NS(C)(=O)=O)ccc2O1	·	·	·	-14.3	-0.6	13.1	-0.7	·	i
CC(C)CC1NC(=O)N(CC(=O)Nc2ccc3c(c2)OCCO3)C1=O (stereo not drawn)	0.684	2.0	-15.6%	-2.8	24.3	17.1	1.5	-0.2	i
CC(=O)c1ccc(S(=O)(=O)N2CCN(C(C)C(=O)N(C)Cc3ccccc3)CC2)cc1 (stereo not drawn)	·	-0.5	·	1.9	-4.9	-7.8	0.6	6.9	i
Cn1c(=O)c2cc(NC(=S)NC3CC3)ccc2n1Cc1ccccc1	·	·	·	4.2	2.8	7.0	0.7	-1.3	i
Cc1cc(NCc2ccco2)n2c(nc3ccccc32)c1C#N	0.719	4.3	1.5%	·	·	·	·	14.3	·
CC(=O)NC(=S)Nc1ccc(NC(=S)NC(=O)c2ccc([N+](=O)[O-])cc2)cc1	0.699	33.5	16.2%	2.7	12.9	4.2	-1.4	3.3	i
Cc1ccc(SCC(=O)OCC(=O)NC2(C#N)CCCCC2)cc1	0.677	-9.3	4.4%	1.7	7.8	10.9	3.9	-0.6	i
CSc1nsc(NC(=O)Cc2ccccc2)n1	0.666	-8.8	5.1%	-8.7	-6.8	-9.1	-3.3	3.2	·
COc1ccc(NC(=O)Nc2ccc3c(c2)[C@H]2C[C@H](CC(=O)N4CCCCC4)O[C@H](CO)[C@H]2O3)cc1	·	·	·	4.3	-7.0	-6.5	0.9	·	i
CCOc1ccccc1NC(=O)CCNC(=O)Cn1ccc2ccccc2c1=O	0.697	2.1	·	-2.5	5.9	22.4	2.9	-3.1	i
c1ccc(N2CCN(c3cnc4ccccc4n3)CC2)cc1	0.691	·	7.8%	·	·	·	·	-1.5	·
Cc1[nH]c2ccccc2c1C(=O)C(C)Sc1nnc(C2CC2)o1 (stereo not drawn)	0.692	-3.4	-8.3%	11.4	2.2	1.8	1.1	-5.6	i
Cc1cc(C(=O)Nc2cccc3c2O[C@H](CN(C)S(=O)(=O)c2ccc(F)cc2)[C@H](C)CN([C@@H](C)CO)C3=O)n(C)n1	·	·	·	-1.7	-7.4	-7.6	3.0	·	i
CC1(c2nnc(Cc3ccccc3)o2)CC(c2c(Cl)cccc2Cl)=NO1 (stereo not drawn)	0.685	·	·	-6.6	-26.9	-44.7	-6.3	-2.0	i
C=CCNC(=O)c1onc(CSc2cc(C)ccc2C)c1C(=O)O	0.631	85.7*	0.5%	-30.7	2.6	0.2	-3.5	-2.9	i
N#CCOC(=O)c1cc(S(=O)(=O)N2CCCCC2)ccc1N1CCOCC1	0.653	5.0	-7.6%	0.1	7.7	0.5	-0.2	-1.4	i
Cc1ccnc(NC(=O)COC(=O)C23CC4CC(CC(C4)C2)C3)n1	0.688	20.0	6.8%	-1.8	5.8	-1.3	-3.8	-15.6	i
CC(C)C(=O)N1CCN(c2c(Cl)cccc2[N+](=O)[O-])CC1	0.631	10.4	1.8%	·	·	·	·	-2.3	·
COC(=O)C[C@H]1C=C[C@@H](NC(=O)Nc2c(C)noc2C)[C@@H](CO)O1	·	·	·	-0.1	9.6	1.0	4.9	0.0	·
Cc1ccc(SCC(=O)NC(=O)NCCC(C)C)c(C)c1	0.698	0.7	0.1%	8.0	-0.7	2.7	5.5	-4.0	i
Cc1cccc(NC(=O)CCNS(=O)(=O)c2cccc3nsnc23)c1	0.71	8.3	22.4%	·	·	·	·	4.6	·
Cc1nc(SCC(=O)c2ccc(F)cc2)c([N+](=O)[O-])[nH]1	0.675	93.3*	-0.7%	·	·	·	·	-2.2	·
Cc1cc2nc(C)c(Cc3ccccc3)c(=O)n2[nH]1	0.581	27.5	27.6%	·	·	·	·	1.4	·
N#Cc1nc(-c2ccc(Cl)cc2)oc1NCCc1ccccn1	0.757	8.4	-4.1%	·	·	·	·	0.3	·
CCn1cnc2cc(NC(=O)c3ccc(C)cc3)ccc21	·	0.5	-2.0%	8.4	4.1	5.7	-0.9	5.4	i
COc1ccc(C2CC(=O)c3cnc(Nc4cc(C)cc(C)c4)nc3C2)cc1 (stereo not drawn)	0.747	-8.6	-4.9%	·	·	·	·	-2.4	·

(cont.)
SMILES	E coli growth	ALR H2O2 inh	Vif A3G	MLL AF4-AF9 inh	rRNA inh HTS	rRNA inh HTS OD600	rRNA inh HTS RFP	HNF4A DNA FP	FGF22 binding
CC1CC(C)CN(S(=O)(=O)c2ccc(NC(=O)CCNC(=O)c3ccc([N+](=O)[O-])cc3)cc2)C1 (stereo not drawn)	0.671	-1.7	4.3%	-3.3	2.8	16.6	-2.1	4.7	i
Cc1noc(C)c1NC(=O)Nc1ccc2c(c1)CC(=O)N([C@@H](C)CO)C[C@@H](C)[C@@H](CN(C)Cc1ccc(C(=O)O)cc1)O2	·	·	·	-3.2	1.6	1.9	0.4	·	i
CC12CN3CC(C)(CN(C1)C3c1ccc(Cl)cc1)C2 (stereo not drawn)	0.633	7.2	?	1.2	-1.7	9.4	-1.9	-5.2	i
O=[N+]([O-])c1ccc(Sc2nnnn2-c2ccccc2)nc1	0.644	·	22.5%	1.3	11.5	3.4	0.7	·	i
Cc1scc(C(=O)NNC(=S)NCC(C)C)c1C	0.649	33.5	-8.6%	0.9	0.6	9.1	-3.1	1.4	i
